# High-throughput results deposited in PubChem by National Center for Advancing Translational Sciences (NCATS).
# miR-21 reporter: qHTS Assay for Modulators of miRNAs and/orActivators of miR-21 | 340,000 tested, under 10 active | Potency, µM (top dose mostly 38.3 µM), without a hit: top-dose reporter change, positive = more light | AID 2288, 2010 | HeLa miR-21 FLuc reporter, luciferase, 48 h; active = well fitted rising curve with a large enough effect; inconclusive = small, poorly fitted or top-dose-only effect; inactive = no such curve, though single readings can be large or run the other way;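 further: % of control where 0% means no effect; miR-21 action dims this reporter so a rising signal means less miR-21 action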
#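 Compounds were titrated across several concentrations (up to approximately 40 uM) and incubated 48 hours with HeLa miR-21-FLuc reporter cells (miR-21 target sequence downstream of FLuc, endogenous miR-21). Readout was firefly luciferase luminescence after lytic detection reagent.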
# Rango-impB inh: qHTS Assay for Inhibitors of Rango (Ran-regulated importin-beta cargo) - Importin beta complex formation; Importin subunit beta-1 (Homo sapiens), Q14974; Rango CFP/YFP FRET sensor + importin beta, 45 min; Potency, µM (series often up to 92.2 µM), without a hit: top-dose inhibition of complex formation; 340,000 tested, 0.031% active; AID 540263, 2011; active = rising FRET ratio curve, often small or poorly fitted; inconclusive = mostly compound fluorescence or quenching in the first reads; inactive = flat curves in all reads;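 further: potency means the concentration at half of the fitted maximal effect; 0% = DMSO wells and 100% = buffer wells lacking importin beta; nearly all actives have a fitted effect of over 15% in size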
#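 FRET biosensor (snurportin 1 IBB flanked by EYFP and cerulean), 50 nM, with compound 5 min, then 0.125 microM importin beta in PBS, 1 mM DTT, 0.02% Tween-20, 0.1% BSA. CFP/YFP ratio read after 45 min at room temperature; pre-read flags interference.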
# GLA inh pH 4.5: qHTS Assay for Inhibitors of Human alpha-Galactosidase at pH 4.5; AID 1467, 2008; purified enzyme, 4-MU-alpha-Gal fluorescence, pH 4.5; 230,000 tested, under 10 active; activity change, negative = inhibition, % at 105 µM; Alpha-galactosidase A (Homo sapiens), P06280; inconclusive = small, poorly fitted or top-dose-only inhibition, or a rising curve; inactive = flat fitted curve, though single readings scatter; no compound was filed as active;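 further: 0% = full activity with enzyme and -100% = basal without enzyme; dose as in the result columns while the protocol names 77 µM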
# Target sequence (P06280 whole entry, looked up): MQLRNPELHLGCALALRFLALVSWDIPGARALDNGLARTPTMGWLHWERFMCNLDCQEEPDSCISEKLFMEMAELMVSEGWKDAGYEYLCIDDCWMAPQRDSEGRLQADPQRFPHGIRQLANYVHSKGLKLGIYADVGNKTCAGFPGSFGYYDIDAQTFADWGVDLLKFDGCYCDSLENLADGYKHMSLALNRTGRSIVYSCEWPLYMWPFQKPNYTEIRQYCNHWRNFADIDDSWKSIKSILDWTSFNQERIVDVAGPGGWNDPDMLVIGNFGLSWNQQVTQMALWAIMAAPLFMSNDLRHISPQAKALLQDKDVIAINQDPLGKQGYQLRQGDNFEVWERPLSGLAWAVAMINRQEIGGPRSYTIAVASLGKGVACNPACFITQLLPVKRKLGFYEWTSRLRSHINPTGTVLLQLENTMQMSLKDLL
# Rango release inh: qHTS Assay for Inhibitors of RanGTP induced Rango (Ran-regulated importin-beta cargo) - Importin beta complex dissociation; 340,000 tested, 0.071% active; Potency, µM (doses to about 46.1 µM), without a hit: top-dose activity change, negative = inhibition; AID 540253, 2011; Biochemical FRET Rango-importin beta, RanGTP-induced dissociation; active means falling FRET ratio curve, often poorly fitted, with flat reads before Ran was added; inconclusive means other falling curves, or compound fluorescence or quenching; inactive means flat or rising ratio curve;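 further: potency means the concentration at half of the fitted maximal effect; % of control where 0% means no effect; nearly all actives have a fitted effect of over 45% in size; -100% = wells without RanGTP and RCC1; the record marks most hits as doubtful in a second field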
#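 Compounds preincubate 5 min with complex of recombinant Rango and importin beta in PBS with 1 mM DTT. Ran (0.6 uM) loaded with 2 mM GTP plus 0.2 uM RCC1 starts dissociation; FRET is recorded 45 min later.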
# * marks the source's active call; other numbers are inactive results; u = inconclusive; x = not tested or not shown; & = joins results of further samples; [ ] = remark or other dose.
miR-21 reporter | Rango-impB inh | GLA inh pH 4.5 | Rango release inh | mol
-60.0% | u | 0.5 | -20.1% | CCOc1cccc2cc(-c3csc(NC(=O)CCC(=O)NCCN4CCCCC4C)n3)c(=O)oc12 (configuration not stated)
-0.8% | 3.1% | -1.8 | -2.7% | O=C(CCN1CCN(c2ccccn2)CC1)Nc1ccc(F)cc1
-1.6%&2.9% | -1.5% | 3.8[21.1 µM] | -7.8% | CCOC(=O)C(C)Sc1ccc2nnc(CCNS(=O)(=O)c3ccc(C)cc3)n2n1 (configuration not stated)
14.9% | 3.0% | -11.9 | 12.4% | Cc1ccc(OCc2ccc(C(=O)Nc3c(C)nn(Cc4c(F)c(F)c(F)c(F)c4F)c3C)o2)c([N+](=O)[O-])c1
-6.5% | 0.1% | -23.9 | -4.7% | CCOC(=O)Nc1ccc2c(c1)N(C(=O)CCN(C)C)c1ccccc1S2
-14.3% | u | x | -19.8% | Cc1nn(C)c(C)c1C(C)NC(=O)c1cc(COc2ccc(F)c(F)c2)on1 (configuration not stated)
-0.9% | 0.9% | x | -5.1% | O=C(COc1ccccc1)NC(=S)Nc1cccc2cc(O)ccc12
-0.3% | -0.5% | x | 1.5% | O=C(COc1cc2oc(=O)c3c(c2cc1Cl)CCC3)NCCN1CCOCC1
-9.3% | 0.2% | x | -12.8% | Clc1nnc(Cl)c2c1ncn2Cc1ccccc1
-9.2% | -3.0% | 0.8 | 31.6% | C/C(=N/Oc1nc(C)cc(C)n1)c1ccc(Cl)cc1Cl
u | u | 3.6 | -8.3% | CC1(C)CC(N2CCN(Cc3ccccc3)CC2)=CC(=[N+]2CCCCC2)C1
0.0% | -3.7% | 2.2 | 10.3% | NC(=O)C1=C[C@H](c2coc3ccccc3c2=O)C[C@H](OCc2ccc(CO)cc2)O1
x | -1.4% | x | -2.5% | Cc1ccc(C(=O)N2[C@@H]3CN(C)C(=O)[C@@]2(C)[C@H]2C(=O)N(Cc4ccccc4)C(=O)[C@@H]32)cc1
-10.3% | 1.9% | 0.7 | 1.9% | Cc1ccc(NC(=O)c2cnccn2)cc1S(=O)(=O)N(C)C
1.8% | 0.6% | x | 22.3% | CCOc1ccc(NS(=O)(=O)c2coc(C(N)=O)c2)cc1

# Already shown: 3 of the compounds above.
miR-21 reporter | Rango-impB inh | GLA inh pH 4.5 | Rango release inh | mol
-9.2% | -3.0% | 0.8 | 31.6% | C/C(=N/Oc1nc(C)cc(C)n1)c1ccc(Cl)cc1Cl
u | u | 3.6 | -8.3% | CC1(C)CC(N2CCN(Cc3ccccc3)CC2)=CC(=[N+]2CCCCC2)C1
0.0% | -3.7% | 2.2 | 10.3% | NC(=O)C1=C[C@H](c2coc3ccccc3c2=O)C[C@H](OCc2ccc(CO)cc2)O1

# Later entries.
miR-21 reporter | Rango-impB inh | GLA inh pH 4.5 | Rango release inh | mol
-0.2% | 2.3% | 3.6 | 19.8% | Cc1ccc(CNC(=O)COC(=O)c2ccc(S(=O)(=O)N(C)C)cc2)cc1
-2.2% | u | 6.5 | -1.9% | Cc1ccc(S(=O)(=O)NC(=O)c2cc(C)n(CCCn3ccnc3)c2C)cc1
-2.0% | 2.1% | -5.0 | 8.4% | Cc1ccc(OCC(=O)Nc2ccc(S(=O)(=O)N3CCN(C)CC3)cc2)cc1
18.0% | 4.8% | -14.3 | 6.3% | COc1ccc(NC(=O)NCCCN2CCN(c3cc(C)ccc3C)CC2)cc1
-1.8% | -2.4% | 0.1 | -10.7% | Cc1cc(C(=O)COc2ccc3ccc(=O)oc3c2)c(C)n1Cc1cccs1
x | -2.3% | x | 7.7% | CC(=O)O[C@H]1C(=O)[C@]2(C)[C@H]([C@H](OC(=O)c3ccccc3)[C@]3(O)C[C@H](OC(=O)[C@H](O)[C@@H](NC(=O)c4ccccc4)c4ccccc4)C(C)=C1C3(C)C)[C@]1(OC(C)=O)CO[C@@H]1C[C@@H]2O
u | -0.5% | -19.0 | 14.7% | Cc1ccc(NC(=O)c2ccccc2NS(=O)(=O)c2ccc(Cl)s2)cc1S(=O)(=O)N1CCOCC1
-9.9% | 4.1% | x | -6.4% | Cc1ccc(NC(=O)C2C3CCC(O3)C2C(=O)O)cc1C (configuration not stated)
-17.8% | 3.1% | -2.8 | -3.6% | O=[N+]([O-])c1cc(/C=N\Nc2nc(-c3ccccc3)cs2)ccc1O
-0.4% | 1.8% | x | 5.6% | CC#CC(=O)N1CCC(Oc2cccc(C(=O)NCc3ccccn3)c2)CC1
0.4% | 0.3% | 6.4 | 13.2% | CCN(CC)C(=O)CN1C(=O)COCC1=O
x | 2.8% | x | 1.6% | CC(OC(=O)c1ncc(Cl)c(Cl)c1Cl)C(=O)NC1CCCCC1C (configuration not stated)
-4.4% | 4.7% | -22.3 | -0.8% | O=C(CN(C(=O)CSc1nnc(COc2ccccc2)o1)c1ccc(F)cc1)NC1CCCCC1
-0.2% | -2.4% | -6.3 | 22.2% | CCN(CC)S(=O)(=O)c1ccc(NC(=O)CSc2ncnc3ccccc23)cc1
26.8% | -0.3% | -22.2 | 1.9% | C[C@H](NC(=O)c1nc[nH]c1C(=O)N[C@@H](Cc1ccccc1)C(=O)OC(C)(C)C)C(=O)OC(C)(C)C
12.2% | 0.0% | x | -7.8% | COc1ccc(C2=NOC(C(=O)NCc3cccnc3)C2)cc1OC (configuration not stated)
-2.1% | u | 9.6 | -1.8% | COc1ccc(C(C(=O)NCC2CCCO2)N(C(=O)CNC(=O)c2cccs2)c2ccccc2)cc1OC (configuration not stated)
-7.9% | 0.0% | -9.1 | -20.8% | COCCOC(=O)c1c(C)oc2ccc(OC(=O)c3ccc4c(c3)OCO4)cc12
11.9% | -3.7% | x | 18.1% | CCN(CC(=O)NCc1ccc(F)cc1)C(=O)c1ccc(C(=O)c2ccccc2)cc1
-10.6% | -1.1% | -8.7 | -1.0% | CCOC(=O)c1c(NC(=O)CSc2nnc(-c3ccccc3)n2CC)sc(C(C)=O)c1C
2.7% | -0.4% | 5.1 | -12.7% | Cc1cccc(-n2c(SCC(=O)Nc3nnc(C)s3)nnc2-c2ccoc2C)c1
-3.8% | -4.6% | 3.4 | 18.9% | O=C1CCCN1c1ccc(S(=O)(=O)Nc2cccnc2)cc1
16.7% | 2.3% | x | -6.8% | Cc1c(Cl)cccc1NC(=S)NC1CCCC1
x | -0.3% | x | -12.4% | CCCCC[C@H](O)/C=C/C1C(=O)C=C[C@H]1C/C=C\CCCC(=O)OC (some centres not stated)
x | -0.8% | x | 3.7% | NS(=O)(=O)c1ccc(NC(=O)c2ccc(S(=O)(=O)N3CCCCCC3)cc2)cc1
1.5% | -0.1% | -6.8 | -12.4% | COc1ccc(C(=O)NCc2nnc(SCC(=O)N3CCc4ccccc43)n2Cc2ccccc2)cc1
-35.8% | u | x | u | CN1CCCC1CCNc1ccc2c(=O)c3ccccc3oc2c1 (configuration not stated)
x | u | x | 1.3% | COc1ccccc1NC(=O)Nc1nc(CC(=O)Nc2cccc(F)c2)cs1
-1.1% | -1.3% | -4.9 | 1.4% | CCN1CCCC1CNC(=O)c1ccc(CS(=O)(=O)c2ccccc2C)o1 (configuration not stated)
-1.5% | 1.0% | -6.4 | -12.0% | Cc1cc(O)c(/C=N/Nc2ccc(F)cc2)c(=O)o1
2.0% | 4.0% | -1.9 | 1.1% | Cc1ccc(/C=N/n2c(C)cc(C)c(C#N)c2=O)o1
-34.4% | -11.2% | -1.5 | -3.8% | O=c1c(-c2ccc(Br)cc2)coc2c(CN3CCOCC3)c(O)ccc12
-0.7% | 0.0% | 3.4 | -4.8% | COc1ccc(CN(CC(=O)NCC2CCCO2)C(=O)CCC(=O)Nc2cc(C)ccn2)cc1 (configuration not stated)
-6.4% | -3.1% | -10.0 | 0.9% | N/C(=N\OC(=O)CCCc1ccccc1)c1ccc([N+](=O)[O-])cc1
x | -0.2% | x | -0.7% | COC(=O)[C@H](Cc1ccccc1)NC(=O)[C@@H](N)CC(=O)OCc1ccccc1
-6.8% | 10.1% | 5.2 | -7.9% | CCCC(=O)Nc1ccccc1NC(=O)CN(C)S(=O)(=O)c1ccccc1
-1.0% | -1.9% | x | -7.7% | COc1ccccc1NC(=O)N1CCC(NC(=O)C2CCCCC2)CC1
x | u | x | -11.7% | COc1ccc(Cl)cc1N=Cc1c(O)cc(C)oc1=O
4.6% | -4.8% | x | -11.0% | Cc1ccnn1CCC(=O)N1CCCC(N2CCN(c3cccc(Cl)c3)CC2)C1 (configuration not stated)
-14.9% | 2.0% | -0.6 | -14.7% | Fc1ccc(C2=CC(c3cccs3)n3nnnc3N2)cc1 (configuration not stated)
x | 0.7% | x | 1.1% | O=C(COC(=O)CNC(=O)c1cc(Cl)cc([N+](=O)[O-])c1)NC(=O)NCc1ccco1
-23.5% | u | 7.2 | u | CN1CCN(C(=O)CSc2nc(-c3cccs3)cc(-c3cccs3)c2C#N)CC1
x | 0.9% | x | -12.0% | COc1cccc(CNC(=O)C(=O)NCC2CCCN2S(=O)(=O)c2cc(C)ccc2C)c1 (configuration not stated)
3.6% | -3.2% | -2.8 | 0.3% | CCCSc1nc(-n2ncc(C#N)c2N)c2c3c(sc2n1)CCC(C)C3 (configuration not stated)
-4.7% | 3.0% | -16.9 | 17.6% | Clc1ccc(Cn2cc(Br)cn2)cc1Cl
-49.8% | u | 8.5 | -26.4% | Oc1ccc(Br)cc1C=Nc1cccn2cc(-c3ccccc3)nc12
6.5% | -3.9% | x | -12.3% | CCCCn1c(=O)[nH]c(=O)c2c1nc(CN(C)Cc1cccc(OC)c1OC)n2CCC
x | 0.2% | x | 0.2% | COc1cc(C(=O)NNC(=O)c2cc(-c3ccccc3)n[nH]2)cc(OC)c1C
-5.9% | 0.7% | -6.5 | 3.4% | COc1ccc(OC)c(-n2c(CN3CCC(C(N)=O)CC3)nc3ccccc3c2=O)c1
x | 4.1% | x | 18.2% | CCOc1ccc(S(=O)(=O)N2CCN(C(=S)NCC3CCCO3)CC2)cc1 (configuration not stated)
3.3% | 4.1% | x | 7.0% | COc1cccc(NC(=O)CNC(=O)[C@@H]2Cc3ccccc3CN2C(=O)OC(C)(C)C)c1
-0.5% | -5.6% | x | -6.0% | CN1CCN(S(=O)(=O)c2ccc3c(c2)C(C)(C)C(=O)N3C)CC1
-6.8% | 0.2% | x | -3.6% | CN=C1S/C(=C\c2ccc(Cl)cc2)C(=O)N1C
0.2% | u | -2.9 | 1.2% | C=CCNc1ccc(C(=O)O)cc1
-0.7% | -0.4% | 0.5 | -2.5% | c1ccc(NCc2cccnc2)cc1
-3.0% | 0.2% | -1.7 | 1.1% | O=C(COc1ccccc1)N/N=C/c1ccc2c(c1)OCO2
-65.5% | -2.1% | x | 11.7% | COc1ccc(Nc2ncnc3c2c(C)c(C)n3CCO)cc1
-8.0% | -0.3% | 2.2 | -1.3% | Cc1nn2c(N3CCOCC3)c3c(nc2c1-c1ccccc1)CCCC3
x | -7.6% | x | -11.4% | Cc1nnc(SCC2=C(C(=O)O)N3C(=O)C(NC(=O)COc4ccc(F)cc4)C3SC2)s1 (configuration not stated)
-0.1% | u | 3.1 | 1.1% | Cc1cccc(N2CC(O)(c3cccs3)[N+]3=C2CCCC3)c1 (configuration not stated)

# Sorted by value in Rango-impB inh (descending): 7 of the compounds above
molecule	Rango-impB inh
COc1cccc(NC(=O)CNC(=O)[C@@H]2Cc3ccccc3CN2C(=O)OC(C)(C)C)c1	4.1%
O=C(COc1ccccc1)N/N=C/c1ccc2c(c1)OCO2	0.2%
Cc1nn2c(N3CCOCC3)c3c(nc2c1-c1ccccc1)CCCC3	-0.3%
COc1ccc(Nc2ncnc3c2c(C)c(C)n3CCO)cc1	-2.1%
CCCCn1c(=O)[nH]c(=O)c2c1nc(CN(C)Cc1cccc(OC)c1OC)n2CCC	-3.9%
CN1CCN(S(=O)(=O)c2ccc3c(c2)C(C)(C)C(=O)N3C)CC1	-5.6%
Cc1nnc(SCC2=C(C(=O)O)N3C(=O)C(NC(=O)COc4ccc(F)cc4)C3SC2)s1 (configuration not stated)	-7.6%

# Some of the compounds tested; the hit share may differ from the screen's.
